Compound activity: PubChem BioAssay, several laboratories
CSC inhib – blocks cancer stem cells | actives 1.1% (n = 300,000) | inhibition, % at 7.5 µM | cancer stem cell-like cells viability, luminescence;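 active means mean at 75% or more and at least half the replicates too; inconclusive means mean and replicates disagree; tested in HMLE shEcad cells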;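 further: 0% = median of negative and 100% = median of positive control wells; the first replicate is given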
eIF4H inh – inhibitors of RNA binding by human eIF4H. inhibition, % at 35 µM. actives 0.94% (n = 290,000). eIF4H fluorescence polarization binding assay;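 active means 50% or more with normal probe brightness, or confirmed in later tests; inconclusive means above 50% with abnormal brightness, or retests that disagree; inactive means below 50% or failed in later tests; about a fifth of its hits are not listed in these tables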;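 further: calls also rest on retests at 20 µM and on dose response follow-up; 0% = protein and probe with vehicle and 100% = probe without protein; strong numbers were not always called active; many hits fall short of the cut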
UUG fidelity – yeast start codon fidelity modulation. S. cerevisiae UUG-firefly luciferase reporter, luminescence/redox ratio. activity score, % at 18.7 µM. actives 0.13% (n = 350,000);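 active means replicate mean at a twofold rise or more, about +100% in these data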;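 further: firefly luciferase made from a UUG start codon reports start codon fidelity; reporter light over untreated wells divided by growth signal over untreated wells; some hits fall short of that in this replicate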
PABP FP inh – blocks human PABP binding to poly(A) RNA; inhibition, % at 35 µM; actives 1% (n = 290,000); AID 2014; fluorescence polarization;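 active means 50% or more with normal probe brightness, or confirmed in later tests; inconclusive means above 50% with abnormal brightness, or retests that disagree; inactive means below 50% or failed in later tests; about a fifth of its hits are not listed in these tables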;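 further: calls also rest on retests at 20 µM and on dose response follow-up; controls were probe without protein and protein plus probe with vehicle; some compounds called inactive have numbers as strong as hits; many hits fall short of the cut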
Target sequence (P11940 whole entry, looked up): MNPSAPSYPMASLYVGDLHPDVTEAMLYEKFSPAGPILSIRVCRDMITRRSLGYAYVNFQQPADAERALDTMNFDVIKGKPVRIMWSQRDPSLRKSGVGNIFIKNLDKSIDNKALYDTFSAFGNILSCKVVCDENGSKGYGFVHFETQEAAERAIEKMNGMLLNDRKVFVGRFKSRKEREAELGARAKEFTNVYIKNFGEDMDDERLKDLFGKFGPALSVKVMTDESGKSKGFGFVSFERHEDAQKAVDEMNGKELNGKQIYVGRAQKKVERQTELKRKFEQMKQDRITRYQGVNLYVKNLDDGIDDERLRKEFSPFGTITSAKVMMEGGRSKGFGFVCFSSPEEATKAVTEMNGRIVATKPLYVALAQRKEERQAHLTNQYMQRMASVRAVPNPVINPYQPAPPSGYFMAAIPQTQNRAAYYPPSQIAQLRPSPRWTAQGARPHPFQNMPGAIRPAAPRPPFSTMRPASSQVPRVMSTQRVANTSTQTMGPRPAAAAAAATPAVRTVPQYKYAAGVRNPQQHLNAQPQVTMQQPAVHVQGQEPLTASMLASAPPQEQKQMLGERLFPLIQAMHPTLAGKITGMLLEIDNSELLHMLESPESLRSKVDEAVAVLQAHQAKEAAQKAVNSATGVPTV
MT1-MMP act inh – blocks activation of human MT1-MMP; P50281; GFP/RFP ratio change, % at 20 µM; actives 0.061% (n = 360,000); HT1080 RFP-PRO-GFP cells, GFP/RFP ratio fluorescence, overnight; percent of plate control window, DMSO zero;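 active means GFP/RFP ratio change of at least 30% with cell ATP level not reduced by more than half and red fluorescence within 50% of control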; further: strong numbers were not always called active
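system = RFP-PRO-GFP reporter HT1080 cells | dosing = 20 µM single dose, 1% DMSO | timing = overnight cell settling, then overnight compound exposure, 37 °C, 5% CO2 | read-out basis = GFP/RFP fluorescence ratio | controls = DMSO and RFP-L50D-GFP cell wells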
Env fusion inh – inhibitors of HIV Env-mediated cell fusion. HeLa-JRFL Env/CEM21 cell fusion, luciferase. actives 1.1% (n = 360,000). inhibition, % at 12.3 µM. AID 651610;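 active means mean replicate inhibition score of at least 50 and every replicate individually at or above 50; inconclusive means only one of the two criteria met; inactive means mean below 50 and not all replicates reaching 50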;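 further: 0% = plate neutral controls and 100% = maraviroc near 300 nM; one replicate is shown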
Rce1 inh – blocks yeast Ras-converting enzyme; Q03530; actives 0.27% (n = 290,000); calls only; yeast membranes, quenched prenylated peptide cleavage fluorescence;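 active means fall in fluorescence gain of 50% or more versus controls, with final raw signal at or below 3038400; inconclusive means same 50% fall but final raw signal above 3038400; inactive means fall in fluorescence gain under 50%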;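 further: plate controls were neutral control wells for no effect and wells lacking membranes for full effect; tested at 10 µM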
Target sequence (Q03530 whole entry, looked up): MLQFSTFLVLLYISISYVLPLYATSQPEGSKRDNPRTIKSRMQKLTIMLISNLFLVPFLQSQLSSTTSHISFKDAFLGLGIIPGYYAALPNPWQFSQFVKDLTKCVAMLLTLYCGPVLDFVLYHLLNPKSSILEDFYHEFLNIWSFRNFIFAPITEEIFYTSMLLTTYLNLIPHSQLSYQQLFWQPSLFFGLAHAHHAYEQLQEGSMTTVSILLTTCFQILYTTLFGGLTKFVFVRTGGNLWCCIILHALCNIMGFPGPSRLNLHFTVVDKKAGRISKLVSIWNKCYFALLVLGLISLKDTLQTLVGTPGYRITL
MT1-MMP act inh RFP – second read-out of MT1-MMP act inh, no call of its own (marks repeat the call); RFP signal change, %; measured here: RFP expression control read;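 0 = vehicle wells; hits needed this value within 50% of zero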
Numbers without * were called inactive; i = inactive; u = inconclusive; x = no result given.

Every second line gives: CSC inhib	eIF4H inh	UUG fidelity	PABP FP inh	MT1-MMP act inh	MT1-MMP act inh RFP	Env fusion inh	Rce1 inh
#1 CC(=O)NC(CC(=O)OCC(=O)c1cc(C)ccc1C)c1ccccc1 (stereo not given)
    3	x	-3	x	1	0	x	x
#2 CSc1nnc(Cn2c(=O)sc3ccccc32)n1-c1cccc(Cl)c1
    x	11	7	5	0	-2	-26	i
#3 C=CCn1c(SCC(=O)Nc2ccc3c(c2)OCO3)nnc1-c1cc(Br)ccc1O
    30	-7	-19	22	11	-3	15	i
#4 Cc1cc(C(=O)N2CCCC(C(=O)c3ccc4ccccc4c3)C2)nn1C (stereo not given)
    -12	-2	x	-6	3	-1	7	i
#5 CC(C)NC(=O)C1CCCN(S(C)(=O)=O)C1 (stereo not given)
    x	3	-15	6	1	1	-41	i
#6 Cc1ccc(-c2[nH]c3cc(C(N)=O)ccc3c(=O)c2O)cc1
    x	-16	-18	3	-14	-11	22	i
#7 O=S(=O)(c1ccccc1)N1CCC(O)(CN2CCN(c3ccccc3)CC2)CC1
    11	-1	-15	-3	-6	-5	-3	i
#8 O=C(CN1CCN(c2cnn(-c3ccccc3)c(=O)c2Cl)CC1)NC1CCS(=O)(=O)C1 (stereo not given)
    x	x	-13	x	3	2	-4	x
#9 CN(CC(=O)Nc1ccccc1Cl)C(=O)COC(=O)CSc1ccc(Cl)cc1
    -10	x	0	x	-3	4	5	x
#10 CC(C)(C)c1cc(NC(=O)c2ccco2)no1
    3	-1	-8	-5	0	1	-147	i
#11 CC(C)CCn1c(=S)[nH]c2ncccc2c1=O
    -9	-2	-9	1	2	-1	-10	i
#12 CSc1ccc(CCNC(=O)c2ccc(CS(=O)Cc3ccccc3Cl)o2)cc1 (stereo not given)
    -1	-6	3	10	3	-6	6	i
#13 Cc1ccccc1NC(=O)Nc1ccccc1Br
    -4	1	-19	-6	-6	-6	x	i
#14 COc1ccc(N2CCN(Cc3cc4c(cc3O)CCC4)CC2)cc1
    -2	-1	-10	-8	1	-7	22	i
#15 CCn1cc(CN2CCC(n3nccc3NC(=O)c3ccccc3OC)CC2)cn1
    -8	8	-18	-2	3	6	3	i
#16 COc1cccc(CC2(CO)CCCN(Cc3[nH]c4ccc(C)cc4c3C)C2)c1 (stereo not given)
    53	-4	11	-16	-5	-8	37	i
#17 O=C(CCl)N(C/C=C/c1ccccc1)c1ccc2c(c1)OCCO2
    1	-9	x	-7	-20	-15	-22	i
#18 COc1ccc(C(O)c2ncc(-c3ccccc3OC)[nH]2)cc1 (stereo not given)
    x	x	-5	x	3	0	9	x
#19 C[C@@H]1Cn2cnc(C(=O)N[C@@H](C)c3ccccc3)c2C(=O)N1
    x	x	-16	x	1	1	-14	x
#20 COc1ccc(CCNC(=O)COC(=O)c2cc(OC)c(OC)cc2OC)cc1
    -5	6	x	0	-2	0	9	i
#21 COc1ccc2cc(CN(C)C(=O)CN3C(=O)NC4(CCCC4)C3=O)ccc2c1
    x	x	9	x	7	-2	6	x
#22 Cc1ncc(CO)c2c1OC(C)(C)OC2
    -1	-7	-43	8	-1	1	-18	x
#23 CCOC(=O)CSc1ncc(-c2ccc([N+](=O)[O-])cc2)[nH]1
    -9	-10	x	-9	4	5	12	i
#24 COCCN(Cc1cc2cc(C)ccc2n2nnnc12)C(=S)Nc1ccccc1C
    -8	8	x	12	-1	-4	-2	i
#25 C[C@H](O)[C@@H]1CN2CCc3c([nH]c4ccccc34)[C@@H]2C[C@@H]1N(C)C(=O)Nc1ccccc1
    x	x	-10	x	-4	2	-2	x
#26 CCOc1cc(/C=C2\C(=N)N3N=CSC3=NC2=O)ccc1OS(=O)(=O)c1ccccc1
    2	-3	-20	9	-5	-3	-23	i
#27 c1ccc(Nc2ncnc3sc4c(c23)CCC4)cc1
    x	-15	-18	3	-1	-8	32	x
#28 CCn1c(C)nc2cc(C(=O)NNC(=S)Nc3ccccc3Cl)ccc21
    -7	0	-21	0	4	6	-1	i
#29 COC(=O)/C(C#N)=C/c1c(N2CCCCCC2)nc2ccccn2c1=O
    -10	-1	-13	13	0	-1	6	i
#30 Cc1noc(C(=O)Nc2ccc(F)c(Cl)c2)c1Cl
    -9	9	-20	13	3	1	-15	i

Entries of single compounds, quoted from the list.
CSc1ccc(CCNC(=O)c2ccc(CS(=O)Cc3ccccc3Cl)o2)cc1 (stereo not given) is listed as CSC inhib = -1; eIF4H inh = -6; UUG fidelity = 3; PABP FP inh = 10; MT1-MMP act inh = 3; MT1-MMP act inh RFP = -6; Env fusion inh = 6; Rce1 inh = i
C=CCn1c(SCC(=O)Nc2ccc3c(c2)OCO3)nnc1-c1cc(Br)ccc1O is listed as CSC inhib = 30; eIF4H inh = -7; UUG fidelity = -19; PABP FP inh = 22; MT1-MMP act inh = 11; MT1-MMP act inh RFP = -3; Env fusion inh = 15; Rce1 inh = i

Next part
Every second line gives: CSC inhib	eIF4H inh	UUG fidelity	PABP FP inh	MT1-MMP act inh	MT1-MMP act inh RFP	Env fusion inh	Rce1 inh
#31 COc1ccc(NC(C)=O)cc1S(=O)(=O)Nc1ccccc1C(=O)N1CCCC1
    -10	-4	x	6	-4	3	-10	i
#32 C=CCNc1nc2c(c(=O)[nH]c(=O)n2C)n1CCOc1ccccc1
    -12	-11	-3	4	8	-8	-24	i
#33 O=C(NC(=S)Nc1cc(Cl)ccc1O)c1cccc(Br)c1
    27	8	-15	3	0	0	-1	i
#34 CC(C)OP(=O)(OC(C)C)C(C)NC(=O)Cc1ccccc1 (stereo not given)
    -7	-5	x	1	1	4	10	i
#35 Cc1cc(OC(=O)c2ccccc2)c([N+](=O)[O-])c(=O)[nH]1
    x	5	-11	-4	5	8	7	i
#36 CSC1=NSC2=NC(=O)/C(=C/c3coc4ccccc4c3=O)C(=N)N12
    -3	u	x	-9	-65	5	-19	x
#37 CCOC(=O)c1sc(NC(=O)c2cccc(S(=O)(=O)N3CCc4ccccc43)c2)c(C#N)c1C
    44	-9	-15	-2	-15	-35	31	i
#38 CC(C)CCN1C(N(C)C)=NC[C@@H]1C
    -12	x	-1	x	-3	4	-7	x
#39 Clc1ccc(OCc2nc3ccccc3[nH]2)cc1
    -10	-1	-29	-4	6	-1	-44	i
#40 CCOC(=O)Nc1ccc2c(c1)N(C(=O)CN)c1ccccc1CC2
    7	-25	4	-34	-1	1	-80	i
#41 CC(=O)NCCNS(=O)(=O)c1ccc(C)c([N+](=O)[O-])c1
    -6	-8	x	17	2	4	3	i
#42 CCCC(C)(C)C(=O)N1CCC1(C)C(=O)Nc1cccc(OC)c1 (stereo not given)
    x	x	-14	x	3	4	28	x
#43 CCCc1cc(=O)[nH]c(SCC(=O)NC2CCCCC2)n1
    7	-9	-21	-2	6	2	x	i
#44 NC(c1csc(Nc2ccccn2)n1)c1ccccc1Cl (stereo not given)
    x	x	-15	x	2	2	10	x
#45 O=C(Nc1nccs1)C1CCN(S(=O)(=O)c2cccnc2)CC1
    -12	39	-24	32	-2	0	3	i
#46 COC(=O)/C(=C\Nc1ccc(Cl)cc1Cl)NC(=O)c1ccc(Cl)cc1Cl
    35	-10	-10	-4	-11	-2	x	i
#47 O=C(c1cc2ccccc2cc1OCC(O)CN1CCCCC1)N1CCCCC1 (stereo not given)
    x	-2	-12	-1	3	6	x	x
#48 CCC(=O)c1ccc(OCC(=O)c2ccc3c(c2)NC(=O)CO3)cc1
    -8	-2	x	7	3	-2	-12	i
#49 COCc1cc(/C=N\NC(=O)COc2ccccc2)ccc1OC
    4	-6	x	0	-2	2	-7	i
#50 Cc1cc(=O)oc2cc3c(cc12)OCCN3
    2	2	3	-7	6	1	-56	i
#51 COc1ccc(S(=O)(=O)N2CCN(C)CC2)cn1
    11	-1	-8	2	-2	4	5	i
#52 CCC1(CC)NC(=S)NC1=S
    x	x	-7	x	3	3	3	x
#53 Cc1ccc(CN2CN(S(=O)(=O)c3cccs3)c3nc4ccccc4nc32)cc1
    -13	-6	-25	3	-5	-7	x	i
#54 Cc1ccc(S(=O)(=O)N(C)c2ccc(C(=O)N(C)Cc3nc4ccccc4c(=O)[nH]3)cc2)cc1
    x	x	16	x	1	-3	58*	x
#55 COn1c(=O)c(-c2ccc(Cl)cc2)[n+]([O-])c2ccccc21
    14	0	-11	1	-8	0	-210	x
#56 COc1cccc(-c2nc(N3CCC(C)CC3)c3ccccc3n2)c1O
    -3	-2	-15	-5	-12	-8	-35	i
#57 Cc1ccc(CNC(=O)c2ccc(N3CCC4(CC3)CC(c3ccccc3)=NO4)c(NC(=O)c3ccco3)c2)cc1
    -11	3	-5	1	2	-4	7	i
#58 O=S(=O)(Nc1cccc(Cl)c1)c1cccc(-n2cnnn2)c1
    5	x	-13	x	2	-1	-13	x
#59 Oc1ccccc1/C=N/Nc1cc(N2CCCC2)nc(N2CCCC2)n1
    -5	6	-1	-9	-3	7	-85	i
#60 Cc1ccc(CC(=O)OCC(=O)c2ccc[nH]2)cc1C
    11	x	-11	x	-2	3	-8	x

Some entries already given, reduced to CSC inhib and MT1-MMP act inh.
# | smiles | CSC inhib | MT1-MMP act inh
33 | O=C(NC(=S)Nc1cc(Cl)ccc1O)c1cccc(Br)c1 | 27 | 0
34 | CC(C)OP(=O)(OC(C)C)C(C)NC(=O)Cc1ccccc1 (stereo not given) | -7 | 1
35 | Cc1cc(OC(=O)c2ccccc2)c([N+](=O)[O-])c(=O)[nH]1 | x | 5

2 records picked at random from the list so far, as already listed:
Every second line gives: CSC inhib	eIF4H inh	UUG fidelity	PABP FP inh	MT1-MMP act inh	MT1-MMP act inh RFP	Env fusion inh	Rce1 inh
#38 CC(C)CCN1C(N(C)C)=NC[C@@H]1C
    -12	x	-1	x	-3	4	-7	x
#41 CC(=O)NCCNS(=O)(=O)c1ccc(C)c([N+](=O)[O-])c1
    -6	-8	x	17	2	4	3	i

Later entries.
Every second line gives: CSC inhib	eIF4H inh	UUG fidelity	PABP FP inh	MT1-MMP act inh	MT1-MMP act inh RFP	Env fusion inh	Rce1 inh
#61 Cc1cccc(N2C(=O)N3[C@H]4c5ccccc5OC[C@@H]4[C@@H](c4ccccc4)[C@@]3(C)C2=O)c1
    -5	x	-16	x	1	-2	-73	x
#62 CCNCc1cc([N+](=O)[O-])ccc1OCC
    -7	-1	x	-7	4	6	-9	i
#63 O=C(c1ccccc1)N1CCN(CC2CC=CCC2)CC1 (stereo not given)
    -4	-9	-10	12	1	4	1	i
#64 CCOC(=O)c1c(/N=C/c2ccc(C)cc2O)sc2c1CCC2
    7	14	x	-9	4	4	-18	i
#65 O=C1c2ccccc2S(=O)N1c1cccc(F)c1 (stereo not given)
    x	x	-1	x	1	-1	1	x
#66 CC(C)C(C(=O)N1CCN(C(=O)OC(C)(C)C)CC1)n1cc(-c2cn([C@@H](C)C(=O)N3CCN(C(=O)OC(C)(C)C)CC3)nn2)nn1 (stereo not given in full)
    x	42	x	1	x	x	x	i
